D2 ag: activates the human D2 dopamine receptor; P14416; DiscoveRx PathHunter D2 beta-arrestin, luminescence, 90 min; 100% = 57 uM dopamine signal; activation, % (concentration not given with the values); 0.084% of 360,000 active; in the data active = activation above about 40%; inconclusive = about 15% to 40%; inactive = below about 15%; note: compound concentration not given in the record; the text of the record calls up to 30% inactive
Target sequence (P14416 whole entry, looked up): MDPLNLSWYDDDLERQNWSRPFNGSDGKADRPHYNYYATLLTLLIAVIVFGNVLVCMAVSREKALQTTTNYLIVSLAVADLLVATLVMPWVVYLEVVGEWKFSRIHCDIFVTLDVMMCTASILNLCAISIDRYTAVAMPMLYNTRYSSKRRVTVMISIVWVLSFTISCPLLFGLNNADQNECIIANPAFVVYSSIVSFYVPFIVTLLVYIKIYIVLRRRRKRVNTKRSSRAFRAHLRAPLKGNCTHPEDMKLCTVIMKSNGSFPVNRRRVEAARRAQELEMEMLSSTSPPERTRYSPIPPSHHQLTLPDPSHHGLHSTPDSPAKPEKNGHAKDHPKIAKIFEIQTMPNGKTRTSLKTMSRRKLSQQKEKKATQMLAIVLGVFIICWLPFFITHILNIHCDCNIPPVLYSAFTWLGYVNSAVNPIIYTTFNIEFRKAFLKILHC
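DiscoveRx PathHunter D2 beta-arrestin cells (2,100/well) attached overnight, then compound-stimulated 90 min at 37 C in HBSS/10 mM HEPES/0.1% Tween-20 buffer; beta-galactosidase complementation read by luminescence after 1 h at ambient temperature. Dopamine 57 uM final (EC100) as control.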
D2 PAM: positive allosteric modulators of human D2 dopamine receptor. 0.23% of 360,000 active. DiscoveRx D2 beta-arrestin cells, luminescence, 90 min; 100% = 57 uM dopamine signal. potentiation, % (test concentration not listed); active = potentiation of 50% or more; inconclusive = 30% to 50%; inactive = 30% or less;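 note: compound concentration not given in the record; tested on top of an EC20 dose of dopamine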
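D2 cells co-treated with compound plus 50 nM dopamine (EC20) for 90 min at 37 deg C to detect potentiation. Beta-arrestin recruitment was read as enzyme-fragment luminescence after 1 h at ambient temperature. Full response was set by 57 uM dopamine.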
CtBP-E1A blk: inhibitors of CtBP/E1A interaction; AlphaScreen GST-E1A/His-CtBP binding, 1536-well; hits give low values; control for the full effect not named in the record; activity change, % (concentration not given with the values); 0.49% of 340,000 active; AID 651724; in the data active means activity change below about -65%; inconclusive means about -30% to -65%; inactive means above about -30%; note: % is set by controls: 0 for no effect and ±100 for the full control effect
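AlphaScreen with 125 nM GST-E1A and 125 nM His-CtBP (5X stocks) in Tris pH 8.0, 300 mM NaCl, BSA, Tween 20, TCEP. Compounds preincubated 2 h at 37 deg C, then glutathione donor/nickel acceptor beads added for 1 h at 37 deg C in dark.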
gsp agonist: activates gsp, the McCune-Albright syndrome mutation; gsp mutant cells, cAMP HTRF, 30 min; control for the full effect not named in the record; AID 624287; 0.13% of 340,000 active; Potency, µM (top dose mostly 76.9 µM), for inactives: at the highest dose activation (cAMP increase), usual class: activators; active = well fitted activation curve with a large enough effect; inconclusive = small, poorly fitted or top-dose-only effect, or another doubt; inactive = no such curve, though single readings can be large or run the other way; cell line not stated here;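 note: phosphodiesterase inhibitor Ro 20-1724 added with compounds to block cAMP breakdown; potency is the fitted concentration of half-maximal effect; nearly all actives have a fitted effect of over 60% in size; about a fifth of the inactives were tested at one dose only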
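Cells stably selected in G418 were plated at 2000/well, grown 16-24 hr, then given compounds in DMSO with the PDE inhibitor […] (300 uM solution added) for 30 min at 37C; cAMP was read by HTRF.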
gsp antag: antagonists of gsp mutant (McCune-Albright syndrome); gsp-mutant cells, cAMP HTRF, 30 min; control for the full effect not named in the record; 0.4% of 340,000 active; Potency, µM (titrated, usually from 76.9 µM), for the others: at the top dose activity change, negative = inhibition, hits mostly inhibitors; active = falling curve of any shape with a large fitted effect; inconclusive = falling curve, mostly with a smaller effect; inactive = flat or rising curve; cell line not stated here;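 note: intracellular cAMP measured with PDE inhibitor Ro 20-1724 present during compound exposure; potency is the fitted concentration of half-maximal effect; % is set by controls: 0 for no effect and ±100 for the full control effect; nearly all actives have a fitted effect of over 65% in size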
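G418-selected cells were plated in DMEM/10% FBS for 16-24 h at 37C, then treated with compounds plus the PDE inhibitor […] (300 uM solution added) for 30 min at 37C. Intracellular cAMP was measured by HTRF after 30 min lysis at room temperature.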
Six1-Eya2 inh: inhibitors of human Six1/Eya2 interaction; Q15475+O00167; AlphaScreen GST-Six1/His-Eya2 binding, biochemical; hits give low values; control for the full effect not named in the record; activity change, % (test concentration not listed); 0.56% of 360,000 active; AID 651725; in the data active = activity change below about -65%; inconclusive = about -30% to -65%; inactive = above about -30%; note: % is set by controls: 0 for no effect and ±100 for the full control effect; compound concentration not given in the record
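Compounds are tested against tagged Six1 and Eya2 proteins bridged by glutathione donor and nickel acceptor beads; after a one-hour incubation at 37 °C without light, AlphaScreen emission is recorded.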
Active calls of the source: *; ? = inconclusive; / = not tested or not shown; [ ] = remark or other dose.

D2 ag,Six1-Eya2 inh,gsp agonist,CtBP-E1A blk,gsp antag,D2 PAM,canonical_smiles
-3.4,10,18%[15.4 µM],-4,-4%,-23,O=C(C[n+]1ccc2ccccc2c1)c1ccc(NC(=O)c2ccccc2)cc1
-3.2,-5,/,-6,1%,-42,NC(=O)c1cc([N+](=O)[O-])ccc1NCc1ccc(F)cc1
-6.3,9,-6%[15.4 µM],8,11%,7,O=C(CCN1CCCCO1)N1CCCC(Nc2cccc(F)c2)C1 (stereo not given)
-2.9,11,/,-2,5%,-8,OC/C(Br)=C(\Br)CO
4.4,-15,29%,-20,?,6,O=C(Nc1ccc(Oc2ccccc2)cc1)C1CCN(c2c3c(nc4ncnn24)CCC3)CC1
4.6,4,23%[15.4 µM],-11,/,-8,O=C(O)c1ccc(N2C(=O)CC(N3CCC(c4nc5ccccc5[nH]4)CC3)C2=O)cc1 (stereo not given)
3.1,4,16%,/,11%,4,CCOC(=O)N1CCN(Cc2nc(-c3cccs3)no2)CC1
3.3,3,-1%[15.4 µM],/,-26%,0,CCCCn1c(=O)[nH]c(=O)c2c1nc(-c1cc3c(cc1Br)OCO3)n2C
-2.8,-3,-3%,-4,-24%,-3,Cc1sc(NC(=O)CSc2ncn(-c3ccccc3)n2)nc1-c1ccccc1
-1.9,3,-56%[inhibitor],11,4%,-25,CC1CCCCC1NC(=O)CSCC(=O)O (stereo not given)
-1.4,1,2%,-18,4%,-2,CN1C(=O)CC(N2CCC(c3nc4ccccc4[nH]3)CC2)C1=O (stereo not given)
3.6,0,-8%[15.4 µM],4,3%,6,O=C1c2ccccc2C(O)(c2ccccc2)N1C1CC1 (stereo not given)
-4.7,-88*,-11%,/,-4%,-30,Cc1ncc(CO)c(/C=N/NC(=O)c2cc3c(s2)CCCC3)c1O
-7.3,7,-5%[15.4 µM],-11,/,-24,Cc1ccc(C)c(NC(=O)CN(C)C(=O)c2nn(C)c(=O)c3ccccc23)c1
-2.1,10,8%[15.4 µM],-5,5%,-16,COc1ccc(/C=C/C(=O)NCC(=O)N/N=C/c2ccc(OC)cc2)cc1
-3.1,3,-9%[15.4 µM],8,8%,-8,O=C(Cc1ccsc1)Nc1cc(F)ccc1F
0.0,0,-1%,4,-3%,4,COc1ccccc1CN1C(=O)C(=O)N(Cc2cccc(C)c2)C1=O
-1.7,2,/,5,5%,1,O=S1(=O)CCOC(CO)CN1Cc1ccc(Cl)c(Cl)c1 (stereo not given)
-0.7,-1,-3%,/,-18%,-3,O=C(Nc1cccc(S(=O)(=O)NCc2ccco2)c1)c1cccc(Cl)c1
5.8,-2,-16%,/,-2%,-9,O=C(NCc1ccccn1)c1ccc(OC2CCN(Cc3cccs3)CC2)cc1
7.6,-1,-11%,2,13%,0,O=C1c2cccnc2C(Nc2ccccc2Br)N1Cc1ccco1 (stereo not given)
-2.6,-22,7%[15.4 µM],-10,-5%,-5,Cc1ccc(NS(=O)(=O)c2cccc3nsnc23)cc1C
-3.1,5,9%[15.4 µM],4,0%,-8,COc1cccc(C(O)C2OC(=O)c3ccccc32)c1OC (stereo not given)
4.3,-1,1%,4,7%,1,COc1ccc2nc(Cl)cc(Cl)c2c1
0.9,-8,1%,-14,25%,-5,COc1ccc(C2CC(=O)Nc3sc(=N)c4c(N)c(C#N)c(N)nc4c32)cc1OC (stereo not given)
-4.2,9,/,-25,/,-15,CC1(Oc2cccc(C#N)c2)CCN(Cc2csc3ccccc23)C1 (stereo not given)
0.4,-16,-7%,-12,11%,-16,O=C(NNC(=O)c1ccccc1-n1cccc1)c1ccc(Cl)c(Cl)c1
-19,-6,-59%[inhibitor],-3,-8%,-23,O=C(NCc1ccco1)/C(=C/C=C/c1ccccc1)NC(=O)c1ccco1
-2.7,-2,-2%[15.4 µM],0,6%,-4,O=C(COC(=O)C1CCC(=O)N1)Nc1ccc(Oc2ccccc2)cc1 (stereo not given)
-1.4,4,8%,7,?,-19,O=C(Nc1cccc(F)c1)c1ccc(-c2ccccc2Cl)o1
-0.3,2,-16%[15.4 µM],-2,-10%,5,CC1(C(=O)NCc2ccc(F)cc2)Oc2ccccc2NC1=O (stereo not given)
2.7,1,-32%,12,-15%,10,COc1ccc(CCNC(=O)c2c(C)nn(CC(C)C)c2Cl)cc1OC
-9.4,?,-29%,-19,/,-30,S=C(NCCCN1CCOCC1)NN=C1c2ccccc2-c2ccccc21
-3.1,0,-9%,-3,-22%,0,COc1ccccc1NS(=O)(=O)c1ccc(NC(=O)c2nc3nc(C)cc(C(F)F)n3n2)cc1
-1.8,-2,10%,3,-9%,-5,COc1cc(/C=C/c2nc3ccccc3c(=O)[nH]2)cc(Br)c1O
-6.0,-3,-5%,-10,-28%,-3,Cc1ccc(-n2cccc2/C=C2\C(=N)N3N=C(c4ccco4)SC3=NC2=O)cc1
-3.9,?,-7%,-6,0%,-7,O=c1c2sc3nc(N4CCOCC4)c4c(c3c2nnn1Cc1ccccc1)CCCC4
9.3,1,/,7,/,-9,CC(O)(c1ccncc1)c1nc(-c2cccc(C(F)(F)F)c2)cs1 (stereo not given)
-5.9,-4,4%,3,?,0,Cc1ccc(S(=O)(=O)c2nc(Nc3ccccc3)sc2Cl)cc1
-4.2,0,?,2,/,-3,CC12CCC3C(C1)C(C(=O)O2)C(=O)OC3(C)C (stereo not given)
-4.1,-14,-1%[15.4 µM],4,-8%,-4,COCCCNc1nc2ccccc2nc1NS(=O)(=O)c1cccc(C)c1
-5.6,-6,1%,-13,/,-5,O=C(SCc1c(O)c2ccccc2oc1=O)c1ccccc1
0.4,4,8%,13,3%,-14,CCN(CC)CCNC(=O)C12CC3CC(C)(CC(C)(C3)C1)C2
-1.3,8,2%[15.4 µM],5,8%,-12,COc1ccc(NC(=O)/C(=C/c2cccs2)NC(=O)c2ccco2)cc1
-1.9,5,-8%[15.4 µM],3,6%,-23,O=C(CSc1ccc2nnc(CCNC(=O)c3ccccc3)n2n1)NCc1ccccc1
6.8,5,1%[15.4 µM],-4,4%,10,CCOCc1c(C(=O)OCC(=O)/C(C#N)=C(\C)N)oc2ccccc12
0.5,3,-8%,-5,6%,-10,COc1ccc(NC(=S)N2CCC(N(C)CC3CCCO3)CC2)cc1Cl (stereo not given)
-2.1,3,2%,-4,-4%,2,COc1ccc(S(=O)(=O)N2CCN(CC(=O)NCCc3cccs3)CC2)cc1
-0.8,-11,18%[15.4 µM],-3,3%,-4,COc1cc(Cl)ccc1OCc1cc(C(=O)N2CCCC(OC)C2)no1 (stereo not given)
-2.2,6,/,-3,1%,-9,Nc1nc(N)nc(-c2cccc(Cl)c2)n1
-2.4,-3,-1%,8,1%,9,COCCN(C(=O)COC(=O)/C=C/c1ccc(Cl)c(Cl)c1)c1c(N)n(Cc2ccccc2)c(=O)[nH]c1=O
-2.5,1,5%[15.4 µM],-1,-3%,2,Cc1ccc(N(CC(=O)NCc2ccccn2)S(=O)(=O)c2ccccc2)cc1C
-0.2,-8,-7%[15.4 µM],-3,18%,-11,O=C(/C=C/c1cn(CC(O)CN2CCCCC2)c2ccccc12)c1ccccc1 (stereo not given)
-4.8,-7,8%,-3,-6%,3,CCOCCCn1c(SCC(=O)Nc2ccccc2OC)nc2ccccc2c1=O
-3.4,3,-3%,14,12%,-10,O=C(COC(=O)c1ccccc1)Nc1cc(S(=O)(=O)N2CCCCCC2)ccc1Cl
-4.5,-5,/,0,/,-7,CC1(C(=O)NCc2ccco2)Cc2c(-c3ccccc3)ccnc2O1 (stereo not given)
-5.1,-2,-3%[15.4 µM],0,3%,-9,O=S(=O)(c1ccc(-c2ccon2)s1)N1CCN(c2ccncc2)CC1
-4.7,3,-1%,2,2%,-12,Cc1cccnc1Sc1c([N+](=O)[O-])ncn1C
1.3,-9,-8%[15.4 µM],-6,28µM*,-1,COc1ccc(CCN2C(=O)CSC2=Nc2ccc(C(C)C)cc2)cc1OC
-3.5,3,-4%,-8,5%,-21,CCOc1ccccc1/C=N/NC(=O)CNC(=O)c1cccs1

6 records drawn at random from the list so far, as already listed:
D2 ag,Six1-Eya2 inh,gsp agonist,CtBP-E1A blk,gsp antag,D2 PAM,canonical_smiles
-2.2,6,/,-3,1%,-9,Nc1nc(N)nc(-c2cccc(Cl)c2)n1
-3.5,3,-4%,-8,5%,-21,CCOc1ccccc1/C=N/NC(=O)CNC(=O)c1cccs1
-2.4,-3,-1%,8,1%,9,COCCN(C(=O)COC(=O)/C=C/c1ccc(Cl)c(Cl)c1)c1c(N)n(Cc2ccccc2)c(=O)[nH]c1=O
-4.8,-7,8%,-3,-6%,3,CCOCCCn1c(SCC(=O)Nc2ccccc2OC)nc2ccccc2c1=O
-0.2,-8,-7%[15.4 µM],-3,18%,-11,O=C(/C=C/c1cn(CC(O)CN2CCCCC2)c2ccccc12)c1ccccc1 (stereo not given)
-3.4,3,-3%,14,12%,-10,O=C(COC(=O)c1ccccc1)Nc1cc(S(=O)(=O)N2CCCCCC2)ccc1Cl

Additional results follow.
D2 ag,Six1-Eya2 inh,gsp agonist,CtBP-E1A blk,gsp antag,D2 PAM,canonical_smiles
5.6,6,13%,/,9%,-26,Cn1c(CNC(=O)c2ccc(F)cc2)cc2ccccc21
-4.3,-2,-18%,0,12%,-2,O=C1CCC(C(=O)N2CCC(O)CC2)CN1CCc1ccc(Cl)cc1 (stereo not given)
3.5,-8,19%,0,6%,-2,O=C(OCCN=C1NS(=O)(=O)c2ccccc21)c1ccco1
-3.0,-9,14%,0,8%,-11,COc1c(C)cccc1C(=O)Nc1ccc(N2CCOCC2)c(Cl)c1
-0.2,-3,8%,-1,5%,-6,CCCCOc1ccc(CN(CCO)CCO)cc1[N+](=O)[O-]
-2.2,12,-12%,10,14%,-27,COc1ccccc1CNCc1cccc(Oc2ccccc2)c1
-4.9,0,-18%,3,1%,-35,Cc1cccc(C)c1N(CC(=O)N1CCN(C)CC1)S(C)(=O)=O
-9.3,5,/,-15,/,-20,COc1ccc(NC(=O)c2cc(C3CCCCN3C(=O)C3CC3)on2)c(C)c1 (stereo not given)
0.1,5,0%,5,6%,8,CC(C)Cn1c(NCCN(C)C)nc2c1c(=O)[nH]c(=O)n2C
-4.4,5,18%,-1,12%,-10,CC(=O)Nc1ccc(NC(=O)C(C)OC(=O)C2CCCCC2)cc1 (stereo not given)
-1.6,4,-5%[15.4 µM],-1,10%,-6,O=C(NCCN1CCOCC1)Nc1cccc(Cl)c1
-0.3,-2,-2%,9,3%,21,O=C(CN1C(=O)C2C3C=CC(C3)C2C1=O)N1CC(=O)N(CCc2ccccc2)C(=O)C1 (stereo not given)
-1.2,-3,-24%,-3,9%,-35,Cc1ccc(NC(=S)NC2CCN(Cc3ccccc3)CC2)c(C)c1
-0.7,11,-32%[inhibitor],3,1%,7,Cc1cc(C)n(Cc2ccc(C(=O)NCCC3=CCCCC3)o2)n1

An unsorted share of the library. About 1.4% of those tested had a hit in this group.
